Assay outcomes as filed in PubChem BioAssay.
KSHV LANA nucl: inhibitors of KSHV LANA-nucleosome binding, primary screen, biochemical, fluorescence polarization, FITC-LANA1-23, chicken nucleosomes. FITC-LANA1-23 / chicken nucleosome fluorescence polarization; stronger effect = lower value. AID 720717, 2013. z-score (concentration not given with the values). 0.3% of 51,000 active;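 active = both repeat wells score below -2 in polarization z-score versus plate sample wells, excluding overly bright wells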;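 also: 100 nL library stock added to about 30 µL; numbers are from one replicate; some results filed as inactive read as strong as hits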
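Material: Purified chicken nucleosomes with FITC-labelled LANA N-terminal peptide (1-23) | Reagent: 50 nM FITC-LANA1-23 probe | Medium: TEN-BT buffer, pH 7.5 | Times: 10–45 min incubation at room temperature | Detection: Fluorescence polarization | Replication: Duplicates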
Ab BasE inh: BasE siderophore enzyme inhibitors, primary screen, biochemical, Acinetobacter baumannii ATCC 17978, fluorescence polarization; purified BasE, fluorescence polarization binding displacement; inhibition, % (no concentration beside the values); 0.1% of 84,000 active; AID 485350, 2010;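 active = both replicates above 25% with normal brightness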;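 also: 0% = negative plate control signal and 100% = positive plate control signal; stock transfer was 100 nL into about 30 µL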
* marks the source's active call; other numbers are inactive results; nt = no result given; & = joins results of further samples. A portion of the library; the hit share may differ from the screen's.

Structure | KSHV LANA nucl | Ab BasE inh
CCCCn1c(CNc2ccc(C)cc2)nnc1SCC(=O)OC | 1.2 | -0.1
CN(C(=O)CSc1nnc2c3ccccc3n(C)c2n1)C1CCCCC1 | 0.15 | -0.2
CN1CCCN(C(=O)Cc2c(Cl)cccc2Cl)c2nc3ccccc3nc21 | nt | 1.6
CCN1CCN(c2ccc(N=Cc3ccc(N(C)C)cc3)cc2)CC1 | -0.49 | -0.6
CCOC(=O)CSc1nc(=O)cc(N)n1Cc1ccc(F)cc1 | -0.78 | 0.4
COc1ccc2oc(-c3cccc(F)c3)cc(=O)c2c1 | -0.17 | 1.9
CCc1nnc2sc(-c3ccccc3N)nn12 | 1.5 | -2.7
CC(C)NC(=O)CSc1nnc2sc3ccccc3n12 | nt | 2.0
CCCCNC(=O)C1(O)c2ccccc2NC(=O)N1c1ccccc1 (stereo not given) | 1.3 | -2.3
CCOC(=O)CNc1c(-c2ccc(OC)cc2)nc2ccc(Cl)cn12 | 0.63 | -0.1
O=C(O)CC(C1CCCCC1)n1cccc1 (stereo not given) | -1.5 | nt
Cc1c(C(=O)Nc2ccc(F)cc2)cnn1-c1ccc(F)cc1 | -0.29 | 2.4
O=C(CC(c1ccccc1)C1CCCCC1=O)c1ccco1 (stereo not given) | 0.92 | -0.8
CCOC(=O)Cc1nnc2c3ccccc3n(C)c2n1 | -0.14 | -0.3
CC1=C(C(=O)OC(C)C)C2(O)C(=O)c3ccccc3C2(O)N1 (stereo not given) | -0.67 | -4.0
COC(=O)[C@H](C)NC(=O)Cc1cccc2ccccc12 | nt | 1.2
COc1ccc(N2CCN(C(=O)c3oc4ccc(Br)cc4c3C)CC2)cc1 | nt | 1.4
COC(=O)c1cc2c(=O)n3ccccc3nc2n(CCN2CCOCC2)c1=N | -0.5 | 0.9
Cc1cc(C)nc(C#N)n1 | -0.61 | 0.0
CCOC(=O)C1CCN(Cc2cc(=O)n3c(-c4ccccc4)csc3n2)CC1 | nt | -0.3
COc1ccc(N2CC(NC(=O)NCc3ccc4c(c3)OCO4)CC2=O)cc1OC (stereo not given) | -0.48 | 4.3
CCc1nnc(NC(=O)CCCSc2ccccc2)s1 | nt | -1.4
Cc1oc(-c2ccccc2)nc1C(=O)O | 0.14 | -1.8
CCN(CC)c1ccc2cc(-c3csc(C)n3)c(=O)oc2c1 | nt | 4.6
COC(=O)c1sc(-n2cccc2)c(C(=O)OC)c1C | -0.049 | -1.7
CN(C)c1nc(NCCO)c2cnn(C)c2n1 | 1.3 | 0.0
FC(F)(F)Oc1ccc(OCc2n[nH]c(=S)o2)cc1 | nt | 1.6
N#Cc1cccc(C(=O)Cc2cccc(Oc3ccccc3)c2)c1 | nt | 0.7
COc1cccc(NC(=O)CSc2nc(N)cc(=O)[nH]2)c1 | nt | -1.3
CN(Cc1ccccc1F)C(=O)CCCn1c(=O)oc2ccccc21 | nt | 1.2
O=C(O)CCc1nnc2ccc(N3CCC4(CC3)OCCO4)nn12 | 0.13 | -0.6
Cc1cc(C)c2oc(-c3cc(N)ccc3Cl)nc2c1 | -0.8 | -3.5
Cc1cc(NC(=O)c2cccc(-n3cnnc3)c2)no1 | -0.41 | -1.7
Cc1cc(Cl)c2ccccc2[n+]1[O-] | -0.22 | -0.9
O=C(Cc1csc(N2CCOCC2)n1)N/N=C/c1ccc(F)cc1 | nt | 1.1
O=C(CCCN1C(=O)c2ccccc2C1=O)NCc1ccccc1 | nt | 0.0
N#CCSc1nc2ccc(Cl)cc2[nH]1 | -0.33 | -2.3
CC1=NN(c2ccccc2)C(=O)/C1=C\c1c(O)n(-c2ccc(F)cc2)[nH]c1=O | -0.24 | 9.1
Cc1ccc(SCCC(=O)N2CCCC2)cc1 | -0.92 | -0.2
FC(F)(F)CN(Cn1nc(-c2ccco2)oc1=S)Cn1nc(-c2ccco2)oc1=S | nt | 2.1
N#Cc1cnn2c(-c3ccc(Cl)cc3Cl)ccnc12 | 0.68 | nt
C#CCNCc1ccccc1 | 0.51 | -2.7
Cc1nonc1NC(=O)CNC1CCCCC1 | 0.17 | -0.3
CCOc1ccccc1C(=O)N1CC(C)N(C(=O)c2ccccc2OCC)CC1C (stereo not given) | nt | 2.3
CCNc1nc(C)nc2sc(CC)cc12 | 1.8 | nt
COC(=O)c1c(C)nn(CCC#N)c1N | 1.2 | 0.9
CC1CCCC(C)N1C(=O)CSc1ccc(-c2ccc3c(c2)OCCO3)nn1 (stereo not given) | 0.21 | -0.3
Cc1c(S(=O)(=O)C(C)C)c(N)n(Cc2ccc(Cl)cc2Cl)c1C | 0.54 | -3.7
O=C(Cc1ccc2c(c1)OCCO2)NCc1ccco1 | nt | -5.0
CC(C(=O)Nc1cccc(C#N)c1)N(C)CC(=O)Nc1ccc(Cl)cc1 (stereo not given) | nt | -2.5

Two of the compounds above, with values under each structure:
Screens in order: KSHV LANA nucl, Ab BasE inh
Cc1ccc(SCCC(=O)N2CCCC2)cc1
  -0.92, -0.2
FC(F)(F)CN(Cn1nc(-c2ccco2)oc1=S)Cn1nc(-c2ccco2)oc1=S
  nt, 2.1

Remaining list, next part
Structure | KSHV LANA nucl | Ab BasE inh
COc1cccc(NC(=O)CNCC(O)c2ccccc2)c1 (stereo not given) | nt | -0.3
NC(=O)COC(=O)c1ccc(O)cc1 | nt | -0.4
COc1ccc(CCNC(=O)c2ccc3noc(-c4ccccc4)c3c2)cc1OC | -0.0095 | -0.3
Cc1nc(-c2ccc(-n3nncc3-c3cccs3)cc2)cs1 | nt | -2.2
CC(NCc1cccs1)C(=O)Nc1ccc(S(=O)(=O)N2CCCC2)cc1 (stereo not given) | nt | -1.6
CN1C(=O)/C(=C2\SC(N3CCCCCC3)=NC2=O)c2ccccc21 | -0.6 | 0.4
CCc1ccccc1NC(=O)N1CCCC1C(=O)O (stereo not given) | -2.7 | 2.0
CCCCNC(=O)CC1N=C2c3ccccc3N=C(SCC(=O)N3CCN(c4ccccc4)CC3)N2C1=O (stereo not given) | -0.48 | 1.4
COC(=O)Cn1c(C)nc2ccccc21 | 0.43 | 2.2
CC(c1ccc(-n2cncn2)cc1)N(C)c1ncnc2sc3c(c12)CCCC3 (stereo not given) | nt | 1.1
O=C(CC(C(=O)O)c1cccc(Cl)c1)c1ccccc1 (stereo not given) | 0.1 | nt
S=c1[nH]nc(-c2cccnc2)n1C1CCCCC1 | nt | 0.4
CCCC(CCC)C(=O)Nc1ccc(NC(=O)c2ccco2)cc1 | 3 | -1.9
Cc1ccc2c(c1)N(C(=O)N1CCCC(C(=O)NCc3ccc(Cl)cc3)C1)CC(C)O2 (stereo not given) | -0.095 | -1.2
CN1C(=O)CC(Nc2ccc(N(C)C)cc2)C1=O (stereo not given) | 0.76 | 0.6
CC(C)CCn1c(=O)c2ccccc2n2c(CCC(=O)NCc3cccnc3)nnc12 | 0.44 | -0.8
CCOC(=O)c1c(NC(=O)c2cc3ccccc3c(=O)o2)sc2c1CCCCCC2 | nt | 1.0
C=CCN1/C(=C\CO)[C@@H]2C[C@@H]3[C@H]1CC[C@@]31c3ccccc3N3/C=C4\C5N(/C=C/2C31)c1ccccc1[C@@]51CC[C@@H]2[C@H]1C[C@H]4/C(=C/CO)N2CC=C (stereo not given in full) | 0.091 | -0.9
Cc1ccc(Sc2cn[nH]c2C)cc1 | -0.13 | nt
COc1ccc(NCc2nnc(SCC(N)=O)n2-c2ccc(C)cc2)cc1 | 0.64 | -2.2
O=C(COC(=O)CN1C(=O)c2ccccc2C1=O)Nc1ccccc1 | nt | -1.3
CC(C)OCCCn1c(=O)c2ccccc2n2c(CCC(=O)Nc3ccccc3)nnc12 | 1.6 | -2.3
CC1=CC(=C(C#N)c2nc3ccccc3s2)C=C(C)N1CC1CCCO1 (stereo not given) | nt | 1.0
N#C/C(=C\Nc1ccc2c(c1)OCCO2)c1nc2ccccc2[nH]1 | 1.2 | 0.8
Cc1ccc2oc(=O)cc(CN(C)CCO)c2c1 | 0.57 | -1.7
Nc1nnc(C23CC4CC(CC(C4)C2)C3)s1 | -0.62 | 0.1
COc1ccc(O)c(C(=O)c2cnn(-c3nnc(C)c(=O)[nH]3)c2)c1 | nt | 1.8
O/N=C1\CCCCC1C1=CCCCC1 (stereo not given) | -1.2 | 1.3
O=C1c2c(O)cccc2Cc2cccc(O)c21 | 0.49&-0.37 | 0.5
CN(C)/C=C/C(=O)c1cc(OCC(F)(F)F)ccc1OCC(F)(F)F | nt | -0.8
CCn1c(-c2ccccc2)csc1=Nc1ccc2[nH]c(=O)[nH]c2c1 | nt | 1.1
O=C(CSc1nccc(-c2csc(COc3ccccc3Cl)n2)n1)c1ccccc1 | nt | 3.7
O=C(Oc1ccccc1N1CCOCC1)c1cccnc1Sc1ccc(Cl)cc1 | nt | 0.7
O=C(Cn1nnc(N2CCCCC2)n1)N/N=C/c1cccnc1 | -0.026 | 1.5
CC(C)C(=O)NC(=S)Nc1ccc2oc(-c3cccnc3)nc2c1 | -0.089 | 0.3
CCC(NC(=O)NCc1ccc2c(c1)OCO2)(C(F)(F)F)C(F)(F)F | -0.54 | 2.4
CC(=Nc1ccccc1)C1=C(O)COC1=O | 0.22 | 3.6
O=C(O)CCn1nnc(-c2cccs2)n1 | -0.45 | -2.0
CC1CC(C)CN(C(=O)CSc2nnc(SCC(=O)N3CC(C)CC(C)C3)n2N)C1 (stereo not given) | nt | -0.4
O=C1CN(C(=O)c2ccc(Br)cc2)c2ccccc2N1 | 0.42 | -0.6
Cc1ccc(F)cc1NC(C#N)c1ccccc1 (stereo not given) | -1.1 | 4.0
COc1ccc(-n2c3c(cc(C(N)=O)c2=O)C(=O)CCC3)cc1 | 1.7 | -1.1
N#CCCn1nc(-c2ccc(Cl)cc2)cc1-n1c(C(F)(F)F)nc2ccccc21 | nt | 1.7
O=C(O)C1C2CCC(C2)C1C(=O)O (stereo not given) | nt | -2.9
CN(C(=S)NCc1ccccc1)C1CCCCC1 | -1.5 | 1.1
Cn1cnc(S(=O)(=O)N2CCCN(C(=O)OC(C)(C)C)CC2)c1 | 0.21 | -0.9
C=CCOn1c(=O)c(=O)n(OCC=C)c2ccccc21 | -0.7 | 0.0
CCN(CC)c1nc2c(C)cccn2c(=O)c1/C=N/O | nt | 0.1
Cc1cc(SCc2ncon2)c(Cl)cc1Cl | nt | -4.4
COc1ccc(-n2nnnc2SCC(=O)c2ccc3c(c2)OCCO3)c(OC)c1 | -0.42 | 0.3

Arranged by value in KSHV LANA nucl (largest number first): six of the compounds above.
mol,KSHV LANA nucl
COc1ccc(-n2c3c(cc(C(N)=O)c2=O)C(=O)CCC3)cc1,1.7
O=C(Cn1nnc(N2CCCCC2)n1)N/N=C/c1cccnc1,-0.026
CC(C)C(=O)NC(=S)Nc1ccc2oc(-c3cccnc3)nc2c1,-0.089
COc1ccc(-n2nnnc2SCC(=O)c2ccc3c(c2)OCCO3)c(OC)c1,-0.42
O=C(O)CCn1nnc(-c2cccs2)n1,-0.45
CN(C(=S)NCc1ccccc1)C1CCCCC1,-1.5

(further entries)
Structure | KSHV LANA nucl | Ab BasE inh
Cc1cccc(N=CC=C2OC(C)(C)C(C)(C)O2)c1 | nt | -2.1
CC(C)(C)C(=O)C1=C(O)C(=O)N(Cc2ccccc2)C1c1cccnc1 (stereo not given) | 0.69 | -0.3
Cc1ccc(NNC(=O)c2ccno2)cc1Cl | 0.81 | -1.6
COC(=O)C1=C(CN2CCCC2)NC(=O)NC1c1ccc(OC)cc1 (stereo not given) | -0.29 | 0.0
Cc1csc(/C=C2\CCc3c(cnc4ccc5ccccc5c34)C2=O)c1 | nt | 2.8
CN1/C(=c2/sc(=C3C(=O)NC(=S)NC3=O)n(C)c2=O)Sc2ccccc21 | 0.63 | 4.2
S=C(Nc1ccc(Cl)cc1)N1CCN=C1Nc1ccc(Cl)cc1 | nt | 0.9
O=C1OC2C(C(=O)O)Sc3c(sc(=O)n3-c3ccccc3)C2c2cc(Br)ccc21 (stereo not given) | nt | 2.4
N#CC(c1nc2ccccc2nc1Cl)S(=O)(=O)c1ccccc1 (stereo not given) | nt | 1.6
O=C1c2cccnc2C(Nc2ccc(Br)cc2)N1C1CCCCC1 (stereo not given) | -0.18 | -0.8
Cc1noc(C)c1/C=N/NC(=S)NCCc1ccccc1 | nt | -1.4
CC(C)(C)c1ccc(C(=O)Nc2ccc3oc(-c4ccncc4)nc3c2)cc1 | 0.13 | 4.1
COc1cccc(-c2nc(CS(=O)(=O)CC(=O)N3CCCCC3)c(C)o2)c1 | -0.82 | -0.4
CCC(C)NC(=O)c1ccc(N2CCCC2=O)cc1 (stereo not given) | -0.68 | nt
O=C(CCc1nnc2n(Cc3ccc(F)cc3)c(=O)c3ccccc3n12)N1CCOCC1 | 1.3 | 1.2
O=C(CSc1ccccn1)Nc1ccc(Cl)cc1 | -0.024 | 3.5
CCOC(=O)c1cc(-c2cccc(C(F)(F)F)c2)n[nH]1 | nt | 1.2
Cc1nc(-c2ccc(S(=O)(=O)NCCN(C)C)s2)cs1 | -0.25 | nt
CC(C)(C)NC(=O)c1ccc(COc2ccc(Cl)cc2Cl)o1 | 0.56 | 0.2
Cc1onc(-c2ccccc2)c1NC(=O)N(CCC#N)C(C)C | -1.2 | -0.2
Cc1oc2c(c1C(=O)NCc1cc(C(=O)O)co1)CCCC2 | -0.46 | -0.9
O=C(O)COc1ccc(/C=C2/NC(=S)NC2=O)cc1 | nt | 1.3
CCN1CCCC(OC(=O)C(c2ccccc2)c2ccccc2)C1 (stereo not given) | -0.89&0.049&0.26 | 0.1&-1.6
NNC(=O)c1ccc(OCc2ccc(F)cc2)cc1 | 0.43 | 0.4
